TRPV1 PAM = HTS Assay for Compounds that Act as Potentiators of the Vanilloid Receptor 1; hit rate 0.02% among 320,000; potentiation, % at 8.33 µM; TRPV1-expressing cells, Fluo-8 calcium influx, capsaicin EC20 potentiation; host cell line not named in the record; control for the full effect not named in the record; Transient receptor potential cation channel subfamily V member 1 (Homo sapiens), Q8NER1; active means potentiation above 80%; inconclusive means 30% to 80%; inactive means below 30%; also: 0% is about no effect
Target sequence (Q8NER1 whole entry, looked up): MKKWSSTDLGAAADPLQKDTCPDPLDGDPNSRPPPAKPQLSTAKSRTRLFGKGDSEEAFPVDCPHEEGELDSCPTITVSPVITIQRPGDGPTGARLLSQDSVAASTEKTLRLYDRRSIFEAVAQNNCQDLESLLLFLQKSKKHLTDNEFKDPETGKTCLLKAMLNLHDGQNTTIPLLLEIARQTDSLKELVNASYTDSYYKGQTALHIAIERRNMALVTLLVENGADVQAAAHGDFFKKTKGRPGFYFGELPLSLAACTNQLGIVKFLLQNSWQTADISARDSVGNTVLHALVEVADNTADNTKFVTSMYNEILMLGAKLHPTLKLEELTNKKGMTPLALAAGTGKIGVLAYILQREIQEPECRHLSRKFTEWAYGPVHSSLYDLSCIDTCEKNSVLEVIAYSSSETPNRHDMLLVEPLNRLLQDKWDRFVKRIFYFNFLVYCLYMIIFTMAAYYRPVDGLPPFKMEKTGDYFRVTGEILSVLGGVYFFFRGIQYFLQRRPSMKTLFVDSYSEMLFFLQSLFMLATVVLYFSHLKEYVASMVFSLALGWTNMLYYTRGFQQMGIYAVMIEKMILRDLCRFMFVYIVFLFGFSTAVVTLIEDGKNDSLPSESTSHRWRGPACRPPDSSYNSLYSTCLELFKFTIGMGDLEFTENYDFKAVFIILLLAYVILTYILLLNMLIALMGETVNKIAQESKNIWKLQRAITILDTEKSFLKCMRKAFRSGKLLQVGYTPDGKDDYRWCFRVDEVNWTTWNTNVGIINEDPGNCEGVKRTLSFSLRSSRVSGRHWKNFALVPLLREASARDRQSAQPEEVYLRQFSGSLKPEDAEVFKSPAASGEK
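TRPV1-expressing cells were cultured overnight at 35.5C and loaded with Fluo-8 calcium dye for 40 to 90 min at room temperature. After a 10 s baseline, compound was added and calcium influx was read kinetically for 3 min (ex 480/em 520 nm).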
CtBP-E1A blk = qHTS Assay for Inhibitors of the CtBP/E1A Interaction; AlphaScreen GST-E1A/His-CtBP binding, 1536-well; active compounds read low; control for the full effect not named in the record; AID 651724, 2012; activity change, % (no concentration beside the values); CtBP / adenovirus E1A interaction (AlphaScreen); hit rate 0.49% among 340,000; in the data active means activity change below about -65%; inconclusive means about -30% to -65%; inactive means above about -30%; also: % is scaled to controls: 0 for no effect and ±100 for the full control effect
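AlphaScreen with 125 nM GST-E1A and 125 nM His-CtBP (5X stocks) in Tris pH 8.0, 300 mM NaCl, BSA, Tween 20, TCEP. Compounds preincubated 2 h at 37 deg C, then glutathione donor/nickel acceptor beads added for 1 h at 37 deg C in dark.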
Sfp inh = qHTS Assay for Inhibitors of Bacillus subtilis Sfp phosphopantetheinyl transferase (PPTase). hit rate 3.5% among 310,000. Biochemical Sfp PPTase activity, qHTS. 4'-phosphopantetheinyl transferase ffp (Bacillus subtilis), Q9F4F7. Potency, µM, without a hit: max response, negative = inhibition, usual class: inhibitors; active = well fitted inhibition curve with a large enough effect; inconclusive = small, poorly fitted or top-dose-only effect, or another doubt; inactive = no such curve, though single readings can be large or run the other way;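 also: the enzyme is Sfp with the accession as filed and its product quenches rhodamine fluorescence; potency is read from the fitted curve at half-maximal effect; 0% = enzyme reaction without inhibitor and -100% = no enzyme wells; top concentration of the series not given in the record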
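Sfp 15 nM + cpd, 15 min RT; start w/ rhodamine-CoA 5 uM, BHQ-2-YbbR 12.5 uM (final); 50 mM Hepes pH 7.6, 10 mM MgCl2, 0.01% NP-40, 0.01% BSA; read 525/598 nm at 0 and 30 min.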
gsp ag = qHTS for Agonist of gsp, the Etiologic Mutation Responsible for Fibrous Dysplasia/McCune-Albright Syndrome: qHTS | gsp mutant cells, cAMP HTRF, 30 min; control for the full effect not named in the record | Potency, µM (highest dose often 76.9 µM), inactives show at the top dose activation (cAMP increase), usual class: activators | hit rate 0.13% among 340,000; active = well fitted activation curve with a large enough effect; inconclusive = small, poorly fitted or top-dose-only effect, or another doubt; inactive = no such curve, though single readings can be large or run the other way; cell line not stated here;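 also: phosphodiesterase inhibitor Ro 20-1724 added with compounds to block cAMP breakdown; potency is read from the fitted curve at half-maximal effect; nearly all actives have a fitted effect of over 60% in size; about a fifth of the inactives were tested at one dose only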
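Cells stably selected in G418 were plated at 2000/well, grown 16-24 hr, then given compounds in DMSO with the PDE inhibitor […] (300 uM solution added) for 30 min at 37C; cAMP was read by HTRF.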
Menin MLL FP FL = qHTS Assay for Inhibitors Targeting the Menin-MLL Interaction in MLL Related Leukemias: Competition With Fluorescein Labeled MLL-derived Peptide. FP activity change, % at 61.4 µM. AID 1766, 2009. Fluorescence polarization, fluorescein-MLL peptide displacement from menin. 290,000 tested, under 10 active; inconclusive = falling polarisation curve, or a change in total fluorescence; inactive = total fluorescence flat and polarisation flat or rising; no compound was filed as active; the % refers to the polarisation; negative = inhibition;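 also: % of control where 0% means no effect; inhibitors lower the polarisation; unlabelled MLL peptide was the positive control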
ClpP mod = qHTS Assay for Activators of ClpP. ATP-dependent Clp protease proteolytic subunit (Bacillus subtilis (strain 168)), P80244. purified B. subtilis ClpP, FRET peptide cleavage, 20 min. AID 651965, 2013. hit rate 1.9% among 340,000. Potency, µM (top dose mostly 57.5 µM), for inactives: at the highest dose activity change, negative = active; active = well fitted falling curve with a large enough effect; inconclusive = small, poorly fitted or top-dose-only effect; inactive = no such curve, though single readings can be large or run the other way; also: potency is read from the fitted curve at half-maximal effect; the source files actives as falling curves though it sought activators and does not explain the sign; nearly all actives have a fitted effect of over 65% in size; many hits overshoot -100%
Target sequence (P80244 whole entry, looked up): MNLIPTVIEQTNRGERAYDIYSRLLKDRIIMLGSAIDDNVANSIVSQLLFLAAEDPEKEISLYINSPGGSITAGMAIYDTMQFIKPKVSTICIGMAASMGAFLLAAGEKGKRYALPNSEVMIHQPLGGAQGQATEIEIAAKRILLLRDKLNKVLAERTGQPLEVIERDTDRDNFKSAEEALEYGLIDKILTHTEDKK
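Purified B. subtilis ClpP, 10 microg/mL final in Tris/HCl pH8 with KCl, BSA, glycerol and Tween-20, cleaved an Abz/nitrotyrosine-quenched decapeptide. Fluorescence (ex 320, em 430) was read at 0 and 20 min at room temperature. Delta was normalized to 5.8 microM ADEP and DMSO/no-enzyme controls.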
gsp antagonist = qHTS for Antagonists of gsp, the Etiologic Mutation Responsible for Fibrous Dysplasia/McCune-Albright Syndrome: qHTS; gsp-mutant cells, cAMP HTRF, 30 min; control for the full effect not named in the record; Potency, µM (doses to about 76.9 µM), without a hit: at the highest dose activity change, negative = inhibition, most hits filed as inhibitors; hit rate 0.4% among 340,000; active = falling curve of any shape with a large fitted effect; inconclusive = falling curve, mostly with a smaller effect; inactive = flat or rising curve; cell line not stated here;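 also: intracellular cAMP measured with PDE inhibitor Ro 20-1724 present during compound exposure; potency is read from the fitted curve at half-maximal effect; % is scaled to controls: 0 for no effect and ±100 for the full control effect; nearly all actives have a fitted effect of over 65% in size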
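Measurement of cellular cAMP by homogeneous time-resolved fluorescence following a 30 min compound exposure at 37C. The PDE inhibitor […] was present throughout; the assay buffer was DPBS with 0.05% BSA and 0.005% Tween 20.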
The depositor's hits bear a star; u = inconclusive; x = not tested or not shown; [ ] = remark or other dose.

Each structure is followed by: TRPV1 PAM	CtBP-E1A blk	Sfp inh	gsp ag	Menin MLL FP FL	ClpP mod	gsp antagonist
O=C(CSc1ncnc2nc[nH]c12)Nc1nnc(SCc2ccc(Cl)c(Cl)c2)s1
    6.8	u	15.6%	-42.3%[inhibitor]	1.0	x	-17.6%
Cn1c(=O)oc2cc(S(=O)(=O)NCCN3CCN(c4ccccc4F)CC3)ccc21
    x	2.4	10.2%	28.5%	-2.1	-0.8%	1.9%
COc1ccc(C(=O)Nc2nc3ccc(S(C)(=O)=O)cc3s2)cc1OC
    -4.3	x	1.8%	13.1%[15.4 µM]	4.5	x	-3.3%
CNC(=O)CCCN1C(=O)c2ccccc2Sc2ncccc21
    11.2	8.5	14.3%	27.2%	3.6	0.2%	-3.9%
Cc1nn(CCC(=O)N2CCN(S(=O)(=O)c3ccc(Cl)cc3)CC2)c(C)c1C
    -3.8	5.9	2.4%	-31.5%[inhibitor]	-5.9	x	5.5%
CCN1CCN(CCCNC(=O)c2ccc3c(Cl)c4c(nc3c2)CCCC4)CC1
    -11.6	-22.7	6.1%	u	0.2	-1.7%	0.8%
COc1cc(C2CC(=O)N3CN(Cc4ccccc4)CSC3=C2C#N)ccc1OCc1ccccc1 (stereo not given)
    x	-12.8	3.55µM*	-41.7%[inhibitor]	7.2	2.4%	-16.7%
COc1ccc(C(=O)Nc2cc(C)c3c(=O)oc4ccccc4c3n2)cc1
    9.4	-1.3	13.0%	u	5.5	-1.8%	8.8%
CCCC1NC(=O)c2cccnc2-n2c1nc1ccccc1c2=O (stereo not given)
    x	4.5	x	-89.9%[inhibitor]	x	-0.4%	x
Cc1ccc(S(=O)(=O)Oc2ccc(N3C(=O)C4C5CCC(C5)C4C3=O)cc2)cc1 (stereo not given)
    19.4	0.8	10.2%	u	-3.1	x	-14.3%
COc1ccc(Cl)cc1NC(=O)Cn1c(=O)n2nc(C)nc2c2ccccc21
    -2.6	0.3	0.0%	u	3.4	-2.5%	-2.1%
COc1ccc(CCN(C)C2CCCN(S(=O)(=O)c3ccccc3)C2)cc1OC (stereo not given)
    -0.4	3.8	-2.0%	u	-2.6	0.8%	3.8%
Cc1nc(CNS(=O)(=O)c2ccc3c(c2)OCCO3)cs1
    -7.9	0.2	12.4%	1.0%	1.7	-1.6%	-6.6%
C/C(=N\N1CCN(C)CC1)c1ccc(Cl)c(Cl)c1
    12.5	-2.6	16.2%	2.6%[15.4 µM]	-4.0	-0.6%	12.4%
CC[C@]12c3[nH]c4ccc(OC)cc4c3CCN1C(=O)C(CC(=O)NCc1cccc(C(F)(F)F)c1)C[C@@H]2C(=O)N1CCN(C(=O)c2ccco2)CC1 (stereo not given in full)
    x	0.1	x	x	x	0.6%	-23.5%
CCCNC(=O)COC(=O)/C=C/c1ccco1
    -9.5	-7.8	u	-17.9%	17.3	1.6%	8.4%
NC(=O)c1ccc(NC(=O)c2cncn2-c2ccccc2)cc1
    7.9	5.1	19.4%	6.4%[15.4 µM]	x	-16.7%	-15.8%
Cc1onc(-c2ccccc2)c1C(=O)OCc1nnc(-c2ccccc2)o1
    -16.2	9.3	x	14.1%[15.4 µM]	x	x	-5.1%
COc1ccccc1OCC(=O)NNC(=O)c1cnccn1
    -5.7	-9.2	-46.3%	7.5%	2.6	-0.6%	-1.8%
COCCn1c(=NC(=O)c2ccc(S(=O)(=O)N3CCOCC3)cc2)sc2cc(S(N)(=O)=O)ccc21
    6.2	4.1	10.1%	-12.4%	0.4	0.1%	-22.9%

The last 3 entries of the part above lead into the next:
Each structure is followed by: TRPV1 PAM	CtBP-E1A blk	Sfp inh	gsp ag	Menin MLL FP FL	ClpP mod	gsp antagonist
Cc1onc(-c2ccccc2)c1C(=O)OCc1nnc(-c2ccccc2)o1
    -16.2	9.3	x	14.1%[15.4 µM]	x	x	-5.1%
COc1ccccc1OCC(=O)NNC(=O)c1cnccn1
    -5.7	-9.2	-46.3%	7.5%	2.6	-0.6%	-1.8%
COCCn1c(=NC(=O)c2ccc(S(=O)(=O)N3CCOCC3)cc2)sc2cc(S(N)(=O)=O)ccc21
    6.2	4.1	10.1%	-12.4%	0.4	0.1%	-22.9%
CC(C)CCN1CCC(CN2C(=O)C(=O)NC[C@@H]2Cc2ccccc2)CC1
    x	3.7	x	x	x	-1.4%	9.8%
CN1CCN(CCCN(Cc2cccs2)C(=S)Nc2ccc(Cl)cc2)CC1
    0.9	-23.5	20.6%	-6.9%[15.4 µM]	0.0	1.7%	-17.5%
CCOc1ncccc1C(=O)OCC(=O)Nc1cc(S(=O)(=O)N2CCCCC2)ccc1Cl
    x	1.2	x	-20.7%	x	0.7%	-22.2%
COc1ccc2c(c1)sc(=N)n2C
    4.4	1.1	2.4%	18.1%[15.4 µM]	0.4	u	14.6%
COc1ccccc1NC(=O)CSc1nc2c(sc3ccccc32)c(=O)n1CCN(C)C
    9.2	-0.8	39.8µM*	-0.3%[15.4 µM]	5.0	8.0%	-15.4%
COc1ccc(-c2nc(-c3cccc(C)c3)nc(N3CCN(C)CC3)c2C#N)cc1
    15.4	-1.6	10.9%	3.2%	3.9	-1.3%	1.6%
Fc1ccccc1/C=N/N1CCN(Cc2ccccc2Cl)CC1
    u	-25.0	u	-1.7%[15.4 µM]	1.7	-1.5%	-5.5%
O=C(Nc1ccc(Br)cc1)C1C2C=CC3(O2)C1C(=O)N(CCN1CCCCC1)C3C(=O)NC1CCCCC1 (stereo not given)
    -8.6	-2.5	13.7%	-5.1%	-0.6	x	3.6%
Cn1ccnc1SCC(=O)c1ccc(Br)cc1
    -4.8	5.3	-15.6%	-13.7%	u	1.2%	1.6%
CCOC(=O)c1c(NC(=O)COC(=O)CNC(=O)c2ccco2)sc(C(C)=O)c1C
    -1.5	0.0	0.5%	19.2%	8.0	-5.5%	-12.3%
CN1C(=O)CC(N2CCN(c3ccccn3)CC2)C1=O (stereo not given)
    6.5	4.2	-6.5%	-45.0%[inhibitor]	-0.4	-1.0%	-0.2%
COc1ccc(S(=O)(=O)N2CCN(Cc3cccc([N+](=O)[O-])c3)CC2)cc1
    x	-1.1	x	3.5%[15.4 µM]	x	0.9%	4.9%
O=C(COC(=O)CCCN1C(=O)c2ccccc2C1=O)Nc1ncc(Cl)cc1Cl
    -3.1	0.5	5.0%	29.8%	2.9	-0.9%	-14.2%
CCOC(=O)C1=C(C)NC2=C(C(=O)C(C(=O)OCC)C(c3ccco3)C2)C1c1ccccn1 (stereo not given)
    -6.0	-3.6	-4.0%	-11.5%	2.0	31.6µM*	-5.2%
NC(=O)c1cc(N=Nc2c(N)[nH]n(-c3c(Cl)cc(Cl)cc3Cl)c2=O)ccc1Cl
    8.8	x	16.7%	-6.7%[15.4 µM]	1.4	x	-13.5%
COC(=O)C(NNc1ccccc1C)(NC(=O)c1ccc(F)cc1)C(F)(F)F (stereo not given)
    5.1	-21.4	10.3%	1.2%	4.5	342.7%	-1.7%
Brc1ccccc1OCCCCCN1CCOCC1
    -21.0	9.2	-28.3%	19.4%[15.4 µM]	-2.5	x	-11.1%
Cc1ccc(-c2nc3ccccc3nc2NN)cc1
    -6.3	-3.9	14.1µM*	11.6%	4.9	u	1.5%
CC(=O)Nc1cccc(Oc2cnc3ccccc3n2)c1
    0.4	-2.3	20.3%	-30.7%[inhibitor]	3.5	-3.3%	-2.6%
Cc1cccc(C(=O)NNC(=O)c2cc3cc4ccccc4nc3s2)c1
    -5.7	-1.3	17.5%	-25.9%	-1.7	22.4µM*	u
C=CCOc1cccc(/C=C\c2nc(O)c([N+](=O)[O-])c(=O)[nH]2)c1
    13.5	-17.1	-4.2%	-26.2%	u	1.9%	11.2%
COc1ccc(-c2cn(-c3ccccc3)nc2CO)cc1
    23.2	5.1	6.6%	-6.4%	-0.1	x	-19.8%
O=C(NC1(C(F)(F)F)NC(=O)N(CC2CCCCC2)C1=O)c1ccco1 (stereo not given)
    -5.7	4.1	12.5%	-17.7%	4.4	-0.8%	7.0%
COc1ccc(/C=C/C(=O)NC(=S)Nc2ccc(S(=O)(=O)Nc3nccnc3OC)cc2)cc1
    18.3	u	u	0.9%[15.4 µM]	3.4	-1.4%	u
CC(C)NC(=O)NNC(=O)Cn1nnc(-c2cccc(Cl)c2Cl)n1
    3.0	-8.8	10.4%	10.8%	-6.8	x	3.6%
Cc1cc(NC(=O)Cn2cnc3c(nnn3-c3cccc(F)c3)c2=O)no1
    2.5	1.4	-1.8%	29.9%	0.9	x	3.6%
O=C(c1cccc(OC2CCN(Cc3ccc(F)cc3Cl)CC2)c1)N1CCCC1
    -25.3	-10.0	-0.9%	-15.0%	x	-1.3%	-1.0%
CCOC(=O)c1c(NC(=O)CNC2CCCc3ccccc32)sc(C(N)=O)c1C (stereo not given)
    14.6	x	6.0%	u	-2.0	-9.6%	-0.1%
CCn1c(=O)c(=O)[nH]c2cc(C(=O)NC3CCCC3)ccc21
    16.6	4.4	17.6%	6.6%[15.4 µM]	3.3	x	x
O=C(c1ccccc1)C1OC1C(=O)c1ccccc1 (stereo not given)
    x	u	x	17.5%	x	x	7.2%
CCO[C@H]1OC(C(=O)NCc2nc3ccccc3[nH]2)=C[C@@H](c2ccc3c(c2)OCO3)[C@@H]1CCCO
    x	3.2	x	-51.1%[inhibitor]	x	0.0%	-13.1%
